rRNA inh HTS: selective bacterial rRNA inhibition in E. coli | GFP signal change (wild-type ribosome), % (no concentration beside the values) | AID 720706 | E. coli WT GFP vs humanized-ribosome RFP mutants, fluorescence, 24 h; hits give low values; DMSO median 0, no signal -100 | 350,000 compounds, 1.6% hits;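 active = significant combined selectivity score with lowered wild-type GFP, culture density cut under 30%, mutant RFP and density less affected; inactive = any of these conditions unmet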; also: one replicate is shown; some compounds called inactive have numbers as strong as hits
HNF4A DNA FP: change in binding of human HNF4 alpha to DNA | P41235 | HNF4a-FITC DNA binding, fluorescence polarization, 1 h | activity change, % at 10 µM | 360,000 compounds, 0.3% hits; in the data active = activity change above about 30%, passing the limit was not always enough;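 also: controls were the assay level and a saturating level of protein; the project sought stronger binding though the title names inhibitors; some compounds called inactive have numbers as strong as hits; positive values seem to mean higher polarization but the record does not say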
FGF22 binding: FGF22 (human) thermal shift binding; Q9HCT0; recombinant FGF22 thermal shift, SYPRO orange fluorescence; percent of sucrose octasulfate shift, DMSO zero; calls only at 9.99 µM; 340,000 compounds, 1.5% hits;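 active = melting point raised past a set limit in the mean and every replicate; three in four hits are not shown here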
Target sequence (Q9HCT0 whole entry, looked up): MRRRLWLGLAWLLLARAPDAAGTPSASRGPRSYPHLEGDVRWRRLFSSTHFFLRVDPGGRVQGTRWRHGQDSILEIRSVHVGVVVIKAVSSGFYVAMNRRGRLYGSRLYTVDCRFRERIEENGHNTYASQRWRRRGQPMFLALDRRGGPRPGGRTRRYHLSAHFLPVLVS
ALR inh: human ALR oxidase inhibition via reduced H2O2. purified ALR, DTT oxidation, H2O2 HRP-luminol luminescence. inhibition, % (concentration not given with the values). 290,000 compounds, 3.8% hits. AID 485317;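 active = mean and each replicate at 75% or more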;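 also: stock transfer was 7.5 nL into about 7.5 µL; 0% = neutral wells and 100% = wells with inactivated enzyme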
Target sequence (P55789 whole entry, looked up): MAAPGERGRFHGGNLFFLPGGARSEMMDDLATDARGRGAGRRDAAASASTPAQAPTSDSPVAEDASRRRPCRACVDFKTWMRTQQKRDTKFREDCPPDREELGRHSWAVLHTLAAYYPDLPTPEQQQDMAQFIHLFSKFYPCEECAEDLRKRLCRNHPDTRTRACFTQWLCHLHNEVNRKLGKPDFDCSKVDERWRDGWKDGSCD
AF4-AF9 inh: blocks AF4 peptide binding to human AF9; AID 651704; inhibition, % at 10 µM; AlphaScreen, biotin-AF4 peptide binding to FLAG-AF9; 350,000 compounds, 0.47% hits;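 active = every replicate reaching a set inhibition limit, whatever the replicate mean, cut at about 25% in these data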;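 also: 0% = plate neutral control median and 100% = total signal loss; the record names both 10 and 1 µM as test concentration; the first replicate is given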
Target sequence (P42568 whole entry, looked up): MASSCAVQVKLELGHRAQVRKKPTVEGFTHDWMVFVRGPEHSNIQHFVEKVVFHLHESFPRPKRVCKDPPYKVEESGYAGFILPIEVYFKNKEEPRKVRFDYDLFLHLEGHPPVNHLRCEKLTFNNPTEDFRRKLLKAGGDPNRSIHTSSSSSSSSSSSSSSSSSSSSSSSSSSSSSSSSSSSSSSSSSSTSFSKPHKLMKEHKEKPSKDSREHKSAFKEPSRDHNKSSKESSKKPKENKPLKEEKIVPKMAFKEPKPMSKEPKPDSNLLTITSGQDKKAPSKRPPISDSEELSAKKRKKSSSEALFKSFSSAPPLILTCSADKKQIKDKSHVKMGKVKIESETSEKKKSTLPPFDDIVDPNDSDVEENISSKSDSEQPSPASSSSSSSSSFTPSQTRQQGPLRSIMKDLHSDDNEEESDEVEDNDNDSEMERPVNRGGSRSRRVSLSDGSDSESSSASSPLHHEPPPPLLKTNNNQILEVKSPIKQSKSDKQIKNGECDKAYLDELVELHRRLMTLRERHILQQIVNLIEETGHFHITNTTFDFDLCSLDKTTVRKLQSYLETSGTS
Vif TR-FRET: HIV-1 Vif–A3G interaction blockers – biochemical, TR-FRET, GST-Vif 1-94, biotin-A3G peptide, dose response retest, primary screen (AID 1117319); TR-FRET GST-Vif / biotin-A3G peptide binding; higher % means a stronger effect; test concentration not given here; strong numbers were not always called active; one-dose inhibition, %; IC50 in µM for titrated hits; 260,000 compounds, 0.57% hits;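 active = above the screen mean plus three standard deviations and confirmed in dose response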;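 also: Vif residues 1-94 fused to GST binding biotinylated APOBEC3G peptide 110-148; 0% = full assay without inhibitor and 100% = GST in place of GST-Vif; retest series ran down from 100 µM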
Ecoli growth: inhibitors of Escherichia coli growth. OD600, 23 h; hits give low values. OD600 absorbance (no concentration beside the values). 330,000 compounds, 0.21% hits. AID 1053175;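 active = OD600 absorbance below the run mean of sample wells minus 3.6 SD, in any replicate, cut at about 0.56 in these data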;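 also: stock transfer was 300 nL into about 60 µL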
rRNA inh HTS OD600: also measured in rRNA inh HTS; calls as there; OD600 change, %; measured here: OD600 growth;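 optical density of the mix in the first replicate; 0 = DMSO median and -100 = no signal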
rRNA inh HTS RFP: also measured in rRNA inh HTS; calls as there; RFP signal change, %; measured here: RFP humanized mutant strains;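 first replicate; 0 = DMSO median and -100 = no signal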
* = called active by the depositor; i = inactive; . = no result given; & = joins results of further samples. The list is partial; count on the stated rates, not on these rows.

| structure | rRNA inh HTS OD600 | HNF4A DNA FP | rRNA inh HTS | ALR inh | Ecoli growth | FGF22 binding | rRNA inh HTS RFP | AF4-AF9 inh | Vif TR-FRET |
| --- | --- | --- | --- | --- | --- | --- | --- | --- | --- |
| CN(CCc1ccccc1)C(=O)c1ccc(NC(=O)Cc2ccc(NC(=O)C3CCCN(C(=O)CCc4ccccc4)C3)cc2)cc1 (centres undefined) | 1 | 5.2 | -6 | . | 0.7 | i | -0.4 | -1.5 | 13% |
| CCCCC(=O)Nc1ccccc1N1CCN(c2ccccc2)CC1 | 7 | 0.1 | 10 | 74 | 0.67 | i | 1.0 | -3.2 | 3% |
| Oc1ccccc1-c1cc(-c2ccccc2)no1 | . | -1.9 | . | 30 | 0.8 | . | . | . | -4% |
| O=C(c1ccc(Cl)cc1)N1CCCCC(Cl)C1=O (centres undefined) | -4 | 0.5 | 5 | . | 0.69 | i | 2.0 | -0.7 | . |
| CC1SCC(=NOCc2c(Cl)cccc2Cl)CS1 (centres undefined) | 7 | 2.4 | 9 | -1 | 0.69 | i | 1.6 | . | -4% |
| C[C@@H]1CN([C@@H](C)CO)C(=O)c2cccc(NC(=O)Nc3ccccc3)c2O[C@@H]1CN(C)C | 4 | . | 0 | . | . | i | 0.9 | -7.8 | . |
| Cc1ccc(CN2C3=NCCN3c3ccccc32)cc1 | 1 | -0.2 | 3 | . | 0.7 | i | -6.1 | -0.4 | 4% |
| O=C(NCc1ccc2c(c1)OCO2)c1cc(-c2cc(Cl)ccc2O)n[nH]1 | -12 | 1.8 | -12 | -2 | 0.7 | i | -0.1 | -5.1 | -2% |
| CCOc1ccccc1NC(=O)c1ccccc1-c1nc(-c2ccccc2OC)no1 | . | 0.6 | . | -5 | 0.77 | . | . | . | 4% |
| O=C(c1ccccc1)N1C[C@H]2[C@@H](c3ccccc31)[C@@H](CO)N2C(=O)Nc1ccccc1Cl | -12 | . | -3 | . | . | i | -2.4 | -2.2 | . |
| Fc1ccc(NC(=S)NNc2ncc(C(F)(F)F)cc2Cl)c(F)c1 | -80 | 0.9 | -55 | 5 | 0.66 | i | -21 | 6.2 | 6% |
| COc1ccc(C(=O)C(CO)Oc2ccccc2OC)cc1OC (centres undefined) | 5 | 4.0 | 4 | 0 | 0.68 | i | 0.6 | -16 | 7% |
| COc1ccc(-c2nc3ccccc3n2Cc2ccccc2)cc1 | . | -0.9 | . | . | 0.8 | . | . | . | -6% |
| O=C(CC(c1ccccc1)c1cc(Cl)ccc1O)N1CCCC1 (centres undefined) | -8 | 0.3 | -11 | 8 | 0.7 | i | 3.4 | 0.9 | 3% |
| CC(C)(C)OC(=O)[C@H](Cc1ccccc1)NC(=O)c1nc[nH]c1C(=O)N[C@@H](CCCCN)C(=O)OC(C)(C)C | -69 | -2.9 | -50 | -13 | . | i | -13 | 15 | . |
| COc1cccc(C2CC(c3ccc(C)cc3)Nc3nc(N)nn32)c1 (centres undefined) | 5 | 0.9 | 4 | -7 | 0.75 | i | -1.1 | 0.5 | 5% |
| COc1cc(NC(=O)CSc2nc3c(c(=O)[nH]2)CCCC3)cc(OC)c1OC | 13 | 2.4 | 6 | . | 0.71 | . | 0.6 | -3.7 | 1% |
| Cn1c(Cc2c[nH]c3ccccc23)n[nH]c1=S | . | -2.3 | . | 2 | 0.73 | . | . | . | 4% |
| COc1ccc(S(=O)(=O)NC(CC(=O)NCCc2ccc(OC)c(OC)c2)c2ccco2)cc1 (centres undefined) | . | -1.4 | . | . | 0.78 | . | . | . | 0%&1% |
| C[C@@]12C(=O)Nc3ccc(Br)cc3C(=O)N1[C@H]1c3cc(Br)ccc3OC[C@@H]1[C@@H]2c1ccccc1 | 14 | 4.7 | 15 | -1 | . | i | 1.8 | -1.5 | . |
| Cc1nc(NC(=O)c2ccccc2)nc2cc3c(cc12)OCO3 | . | -0.3 | . | 45 | 0.71 | . | . | . | . |
| COc1ccc(C(=O)/C=C(\N)C(F)(F)F)c(O)c1 | . | -4.2 | . | 1 | 0.73 | . | . | . | 3% |
| CCCCn1c(SCC(=O)N2CCOCC2)nc2c1c(=O)n(C)c(=O)n2C | 12 | 0.1 | 1 | -4 | 0.7 | i | -3.1 | 1.5 | . |
| Cn1/c(=N\NC(=O)C2CCCCC2)sc2ccccc21 | 14 | 0.2 | 15 | . | . | i | 0.5 | 3.1 | . |
| O=C(N[C@@H](Cc1ccccc1)C(=O)N1CCC2(CC1)NCCc1[nH]cnc12)c1cccc(Br)c1 | -3 | -1.4 | -1 | -3 | 0.63 | i | 3.4 | 13 | -6% |

Some of the entries above in another layout:
rRNA inh HTS OD600	HNF4A DNA FP	rRNA inh HTS	ALR inh	Ecoli growth	FGF22 binding	rRNA inh HTS RFP	AF4-AF9 inh	Vif TR-FRET	compound
1	5.2	-6	.	0.7	i	-0.4	-1.5	13%	CN(CCc1ccccc1)C(=O)c1ccc(NC(=O)Cc2ccc(NC(=O)C3CCCN(C(=O)CCc4ccccc4)C3)cc2)cc1 (centres undefined)
7	0.1	10	74	0.67	i	1.0	-3.2	3%	CCCCC(=O)Nc1ccccc1N1CCN(c2ccccc2)CC1
.	-1.9	.	30	0.8	.	.	.	-4%	Oc1ccccc1-c1cc(-c2ccccc2)no1
-4	0.5	5	.	0.69	i	2.0	-0.7	.	O=C(c1ccc(Cl)cc1)N1CCCCC(Cl)C1=O (centres undefined)
7	2.4	9	-1	0.69	i	1.6	.	-4%	CC1SCC(=NOCc2c(Cl)cccc2Cl)CS1 (centres undefined)
4	.	0	.	.	i	0.9	-7.8	.	C[C@@H]1CN([C@@H](C)CO)C(=O)c2cccc(NC(=O)Nc3ccccc3)c2O[C@@H]1CN(C)C
1	-0.2	3	.	0.7	i	-6.1	-0.4	4%	Cc1ccc(CN2C3=NCCN3c3ccccc32)cc1
-12	1.8	-12	-2	0.7	i	-0.1	-5.1	-2%	O=C(NCc1ccc2c(c1)OCO2)c1cc(-c2cc(Cl)ccc2O)n[nH]1
.	0.6	.	-5	0.77	.	.	.	4%	CCOc1ccccc1NC(=O)c1ccccc1-c1nc(-c2ccccc2OC)no1
-12	.	-3	.	.	i	-2.4	-2.2	.	O=C(c1ccccc1)N1C[C@H]2[C@@H](c3ccccc31)[C@@H](CO)N2C(=O)Nc1ccccc1Cl
-80	0.9	-55	5	0.66	i	-21	6.2	6%	Fc1ccc(NC(=S)NNc2ncc(C(F)(F)F)cc2Cl)c(F)c1

(list continues)
| structure | rRNA inh HTS OD600 | HNF4A DNA FP | rRNA inh HTS | ALR inh | Ecoli growth | FGF22 binding | rRNA inh HTS RFP | AF4-AF9 inh | Vif TR-FRET |
| --- | --- | --- | --- | --- | --- | --- | --- | --- | --- |
| Cc1ccc(S(=O)(=O)N2CCN(C(=O)COC(=O)/C=C/c3cccc([N+](=O)[O-])c3)CC2)c(C)c1 | 26 | 3.8 | 9 | . | 0.72 | i | -1.9 | 6.2 | . |
| N#CCCN1CCN(C(=O)c2c(N)no[n+]2[O-])CC1 | 15 | 1.9 | 11 | 3 | 0.71 | i | 2.2 | 1.8 | 7% |
| O=C(CCN1C(=O)C2C3C=CC(C3)C2C1=O)Nc1c(F)cccc1F (centres undefined) | . | 3.1 | . | -1 | 0.76 | . | . | . | -3% |
| Cc1ccc(C2(c3ccc(C)cc3)NC(=O)N(CC(=O)NCCCN3CCCC3=O)C2=O)cc1 | 5 | -4.4 | 5 | -1 | . | i | 6.2 | 0.5 | . |
| CCCCNC(=O)c1cn(C)c2ccc(S(=O)(=O)N3CCCC3)cc2c1=O | 8 | -4.0 | 5 | 1 | 0.68 | i | -1.0 | 0.7 | . |
| O=c1c(-c2ccc3c(c2)OCCO3)coc2cc(O)cc(O)c12 | . | 0.0 | . | 2 | 0.61 | . | . | . | -1% |
| Cc1cccc(/C=C/c2onc(C)c2S(=O)(=O)N2CCC(C(=O)NC(C)C)CC2)c1 | 4 | -2.9 | -2 | 7 | 0.73 | i | -3.4 | 3.8 | 1% |
| CCCc1cc(=O)[nH]c(SCC(=O)N2CCC(C(=O)OCC)CC2)n1 | . | 0.2 | . | 5 | 0.73 | . | . | . | 0% |
| COC(=O)[C@@H](N)Cc1ccc(O)c(O)c1 | . | -2.4 | . | 98* | . | i | . | 8.3 | . |
| CCOC(=O)N1CCN(S(=O)(=O)c2ccc(Br)s2)CC1 | . | 2.3 | . | 5 | 0.77 | . | . | . | 11% |
| COc1cc(C(=O)OCC(=O)NCCN2C(=O)CSC2=O)ccc1OCc1c(C)noc1C | . | 1.9 | . | . | 0.7 | i | . | -1.5 | 5% |
| C[C@@H](OC(=O)N(C)Cc1ccccc1)[C@H]1O[C@]2(C)CCCC[C@H]1O2 | 2 | 2.5 | -4 | 1 | . | i | 0.8 | . | . |
| CC(=O)c1ccc(S(=O)(=O)N(C)CC(=O)NCc2ccco2)cc1 | 19 | 1.6 | 24 | 0 | 0.71 | i | 2.4 | -1.5 | -11% |
| CCc1ccc(-n2c(SCC(=O)Nc3ccc(C(=O)O)cc3)nnc2-c2ccncc2)cc1 | -2 | . | 16 | . | 0.65 | i | -1.3 | . | 6% |
| CCOC(=O)c1c2c(n(C)c1C)C(=O)C(=O)c1ccc(Br)cc1-2 | . | 0.3 | . | -29 | 0.66 | . | . | . | . |
| COc1ccc2c3c([nH]c2c1)[C@@H](CO)N(C(=O)CN(C)C)CC31CN(CC2CC2)C1 | 9 | . | 3 | . | . | i | 0.6 | 16 | . |
| CCOc1ccc(S(=O)(=O)N2CCCC(C(=O)N3CCN(c4ccccc4)CC3)C2)cc1 (centres undefined) | -21 | -0.8 | -6 | 5 | 0.73 | i | 1.6 | 4.5 | . |
| COc1cccc2c1Oc1ncccc1N(C(=O)CCC(=O)NCc1ccc(F)cc1)C2 | 8 | -1.2 | 5 | -10 | 0.69 | i | 1.9 | -5.1 | . |
| CCC(C)(C)n1nnnc1CN(Cc1cc2cc(OC)c(OC)cc2[nH]c1=O)C1CCCC1 | . | -4.2 | . | -65 | 0.73 | . | . | . | -6% |
| Cc1nccn1CC(O)COc1ccc([N+](=O)[O-])cc1 (centres undefined) | 16 | 2.0 | 16 | -17 | 0.63 | i | 7.8 | -0.2 | -1% |
| C=CCc1cccc(CNc2ccc(S(=O)(=O)Nc3nccnc3OC)cc2)c1O | -27 | 2.9 | -4 | 2 | 0.62 | i | -1.5 | -12 | . |
| CCOC(=O)Cc1csc(NC(=O)/C=C/c2cccc(Br)c2)n1 | 6 | 0.7 | 4 | -4 | 0.68 | i | 3.0 | -0.6 | 10% |
| CC(C)OCCCN1CC(=O)N2[C@@H](Cc3c([nH]c4ccccc34)C2(C)C)C1=O | 11 | 0.4 | 7 | 3 | 0.64 | i | -1.8 | 1.1 | 4% |

Profiles from above. Screens in order: rRNA inh HTS OD600, HNF4A DNA FP, rRNA inh HTS, ALR inh, Ecoli growth, FGF22 binding, rRNA inh HTS RFP, AF4-AF9 inh, Vif TR-FRET
CCOC(=O)Cc1csc(NC(=O)/C=C/c2cccc(Br)c2)n1 in the list: 6, 0.7, 4, -4, 0.68, i, 3.0, -0.6, 10%
CCc1ccc(-n2c(SCC(=O)Nc3ccc(C(=O)O)cc3)nnc2-c2ccncc2)cc1 in the list: -2, ., 16, ., 0.65, i, -1.3, ., 6%
